Ecoli growth = inhibitors of Escherichia coli growth; OD600, 23 h; active compounds read low; OD600 absorbance (concentration not given with the values); actives 0.21% (n = 330,000); AID 1053175;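 active = OD600 absorbance below the run mean of sample wells minus 3.6 SD, in any replicate, cut at about 0.56 in these data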;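 also: stock transfer was 300 nL into about 60 µL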
Beta apoptosis = beta cell apoptosis inhibition; INS-1E cytokine-induced death, ATP luminescence, 48 h; percent of positive-control rescue, neutral wells zero; protection from apoptosis, % (no concentration beside the values); actives 0.8% (n = 300,000); AID 435005;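 active = all replicates at 75% or more, or half of them and the mean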;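 also: 0% = cytokine-treated negative control wells and 100% = positive control rescue; higher means more ATP so stronger rescue from cytokine killing; wells of about 40 µL received 100 nL stock; the first replicate is given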
MLL AF4-AF9 inh = inhibitors of human MLL-AF4/AF9 interaction; actives 0.47% (n = 350,000); P42568; AlphaScreen, biotin-AF4 peptide binding to FLAG-AF9; inhibition, % at 10 µM;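 active = every replicate reaching a set inhibition limit, whatever the replicate mean, cut at about 25% in these data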;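 also: 0% = plate neutral control median and 100% = total signal loss; the record names both 10 and 1 µM as test concentration; the first replicate is given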
Target sequence (P42568 whole entry, looked up): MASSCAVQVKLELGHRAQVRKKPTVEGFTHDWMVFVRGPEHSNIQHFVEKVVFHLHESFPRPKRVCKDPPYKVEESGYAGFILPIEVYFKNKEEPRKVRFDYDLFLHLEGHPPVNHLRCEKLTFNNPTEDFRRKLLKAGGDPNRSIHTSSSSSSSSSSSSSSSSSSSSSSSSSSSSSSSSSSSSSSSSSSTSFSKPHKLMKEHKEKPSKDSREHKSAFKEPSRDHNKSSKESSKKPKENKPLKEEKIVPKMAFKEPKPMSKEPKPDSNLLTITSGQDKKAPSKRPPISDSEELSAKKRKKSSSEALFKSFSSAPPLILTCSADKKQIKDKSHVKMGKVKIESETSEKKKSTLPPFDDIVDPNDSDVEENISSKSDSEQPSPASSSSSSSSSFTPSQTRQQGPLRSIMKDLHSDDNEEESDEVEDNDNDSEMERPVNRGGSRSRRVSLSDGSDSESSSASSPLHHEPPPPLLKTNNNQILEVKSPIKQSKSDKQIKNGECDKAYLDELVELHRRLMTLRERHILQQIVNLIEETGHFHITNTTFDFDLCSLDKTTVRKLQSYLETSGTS
T cruzi repl = T. cruzi replication inhibition | T. cruzi beta-gal in NIH3T3, luminescence, 90 h | inhibition, % (no concentration beside the values) | actives 1.4% (n = 300,000) | AID 1885;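 active = mean inhibition across valid replicates above about 55%, limit read from the data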;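 also: signal also drops with host cell toxicity which is not excluded here; 0% = plate median of DMSO wells and 100% = zero luminescence signal; higher percent means less beta-gal luminescence so fewer parasites; stock transfer was 50 nL into about 50 µL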
FGF22 binding = FGF22 (human) thermal shift binding | Q9HCT0 | recombinant FGF22 thermal shift, SYPRO orange fluorescence; percent of sucrose octasulfate shift, DMSO zero | calls only at 9.99 µM | actives 1.5% (n = 340,000) | AID 651658;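 active = melting point raised past a set limit in the mean and every replicate; three in four hits are not shown here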
Target sequence (Q9HCT0 whole entry, looked up): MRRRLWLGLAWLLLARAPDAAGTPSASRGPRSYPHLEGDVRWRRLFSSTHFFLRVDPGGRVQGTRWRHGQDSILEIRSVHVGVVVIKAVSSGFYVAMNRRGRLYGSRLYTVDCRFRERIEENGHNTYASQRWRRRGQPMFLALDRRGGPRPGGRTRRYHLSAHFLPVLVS
UCH37 DUB inh = human UCH37 deubiquitinating enzyme inhibition; purified proteasome/UCH37, Ub-AMC cleavage fluorescence; inhibition, % (test concentration not listed); actives 0.33% (n = 330,000); Q9Y5K5;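 active = mean of two replicates above 20%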;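 also: 0% = compound-free wells with enzyme and 100% = wells lacking proteasome; stock transfer was 100 nL into about 20 µL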
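Signal – fluorescence, ex 355 nm, em 460 nm · System – Proteasome-bound UCH37 · Input – 0.15 nM proteasome as dispensed · Timing – 30 min preincubation with enzyme, 25 min cleavage at room temperature · Read-out basis – percent inhibition of cleavage signal versus uninhibited and no-proteasome wells · Medium – Tris-HCl pH 7.4 with ATP-MgCl2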
Bfl-1 A1 inh = inhibitors of the anti-apoptotic protein A1, read as caspase activation; MEF A1-2A-BIM cells, Caspase-Glo 3/7 luminescence, 3 h; percent of clofoctol response, vehicle zero; caspase activation, % (concentration not given with the values); actives 0.066% (n = 330,000); AID 2462;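 active = over half of replicate activation scores above 10%, or exactly half above 10 with the replicate mean above 10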;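 also: wells of about 30 µL received 50 nL stock; many hits fall short of the cut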
rRNA inh HTS = selective bacterial rRNA inhibition in E. coli; E. coli WT GFP vs humanized-ribosome RFP mutants, fluorescence, 24 h; active compounds read low; DMSO median 0, no signal -100; GFP signal change (wild-type ribosome), % (no concentration beside the values); actives 1.6% (n = 350,000);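 active = significant combined selectivity score with lowered wild-type GFP, culture density cut under 30%, mutant RFP and density less affected; inactive = any of these conditions unmet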; also: one replicate is shown; some compounds called inactive have numbers as strong as hits
rRNA inh HTS OD600 = further read-out of rRNA inh HTS, marked with its call; OD600 change, %; measured here: OD600 growth;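 optical density of the mix in the first replicate; 0 = DMSO median and -100 = no signal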
rRNA inh HTS RFP = further read-out of rRNA inh HTS, marked with its call; RFP signal change, %; measured here: RFP humanized mutant strains;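 first replicate; 0 = DMSO median and -100 = no signal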
* = called active by the depositor; i = inactive; . = not tested or not shown; & = joins results of further samples.

SMILES	Ecoli growth	Beta apoptosis	MLL AF4-AF9 inh	T cruzi repl	FGF22 binding	UCH37 DUB inh	Bfl-1 A1 inh	rRNA inh HTS	rRNA inh HTS OD600	rRNA inh HTS RFP
CN1CCN(C(=O)Nc2ccccc2)CC1	0.72	-12	-1.8	-1	i	-2.0	0.0	5	6	-1.3
COc1ccccc1CNC(=O)Cn1nnc(-c2ccncc2)n1	0.74	-6	.	-3	.	-2.0	0.7	.	.	.
CCc1cccc(CC)c1NC(=S)N1CCn2cccc2C1c1ccncc1 (stereo not given)	0.71	0	-0.5	-11	.	6.2	-0.2	14	5	3.3
C=CCn1c(=N)n(CC(=O)OC)c2ccccc21	0.77	4	.	-19	.	2.2	-0.5	.	.	.
CCOc1ccccc1N1CCN(CC(=O)Nc2cc(C)on2)CC1	0.67	-5	-1.9	-18	i	4.1	-0.2	2	0	-4.7
O=C(NNC(=S)Nc1ccc(Cl)cc1)c1ccccc1OC(F)F	0.69	12	.	-23	.	2.9	-0.4	.	.	.
Cc1ccccc1OCCC(=O)NCCc1ccc(S(N)(=O)=O)cc1	0.7	1	.	4	.	-0.6	-2.5	.	.	.
CO/N=C/c1c(-c2ccccc2)nn(C)c1Cl	.	-19	-1.1	3	i	.	0.5	5	0	-0.6
COc1ccc(N2C(=O)CCC(C(=O)N3CCCCC3)C2c2ccc(F)cc2)cc1 (stereo not given)	0.79	-8	.	10	.	1.2	0.5	.	.	.
O=C(Nc1cccc(-n2cnnn2)c1)c1ccc(OC(F)(F)F)cc1	0.7	1	-4.6	-4	i	3.2	1.5	2	1	-5.6
O=C(CN(C(=O)CNC(=O)c1ccco1)c1ccc2c(c1)OCO2)NC1CCCCC1	0.71	0	.	4	.	5.7	0.0	.	.	.
CCC(O)c1cc2c(cc1NC(=O)c1ccc(C)cc1)OCCO2 (stereo not given)	0.75	-2	.	-10	.	1.7	1.1	.	.	.
COc1ccc(C(=O)NCc2cccnc2)cc1Br	0.68	-5	.	15	.	-1.5	3.3	.	.	.
O=C(NCc1cccc(Cl)c1)NCc1cccc(Cl)c1	0.72	0	.	-18	.	1.7	1.1	.	.	.
COc1ccccc1CNC(=O)COC(=O)CSc1ccc(Cl)cc1	0.61	-7	-0.7	-5	i	2.6	-0.9	3	0	2.3
CC(C)(C)n1ncc(Oc2ccccc2[N+](=O)[O-])c(Cl)c1=O	0.69	-3	1.4	-32	i	3.0	0.4	-13	-12	-1.0
CCN(C(=O)COC(=O)/C(C#N)=C/c1cc(C)n(CCOC)c1C)c1c(N)n(Cc2ccccc2)c(=O)[nH]c1=O	0.64	.	3.4	.	i	9.9	.	2	-2	3.2
CC(C)C[C@@H](CC#N)N1CCN(CCc2ccccc2)CCC1=O	.	2	-1.8	-8	i	-2.1	1.4	7	4	6.0
CC1CCC(C(C)C)C(OCC(O)CNC(C)c2ccccc2)C1 (stereo not given)	0.63	7	5.2	20	i	-1.7	-0.2	-50	-63	-13
CCN1C(=O)c2ccc(C(=O)Nc3nccs3)cc2C1=O	0.73	-9	.	-1	.	2.7	-0.7	.	.	.
CC(=O)c1cccc(CN2CCCC(CCC(=O)NCc3ccccc3F)C2)c1 (stereo not given)	0.72	-6	1.0	61*	i	1.4	0.1	4	7	2.0
CCOC(=O)c1sc(=NC(=O)c2c(F)cccc2F)n(C)c1C	0.68	-6	-0.3	3	i	-0.5	-0.2	4	7	0.1
CS(=O)(=O)c1ccc(C(=O)NNC(=O)c2cc(-c3ccccc3)n[nH]2)cc1	.	-4	0.9	.	i	.	-0.5	0	4	3.5
CN1CCN(C(=O)C2=C[C@H](c3coc4ccccc4c3=O)C[C@H](OCCCCO)O2)CC1	.	3	0.3&1.3	-15	i	5.5	0.3	11	11	-2.8
Cc1cc(N(C)Cc2ccccc2)nc2cc(O)ccc12	0.65	1	1.2	-11	i	i	0.5	1	-6	2.2
Brc1cc2c(cc1CSc1ncccn1)OCO2	0.63	0	1.1	13	i	0.3	0.7	-42	-65	-21
Cn1cc(C(=O)Nc2ccc(F)c(Cl)c2)cn1	0.67	9	.	-12	.	1.1	-0.4	.	.	.
Nc1nc(Nc2ccc(Cl)cc2Cl)nc(C(F)(F)F)n1	0.75	-7	.	.	.	-1.5	0.2	.	.	.
COc1ccc(Cl)cc1C(=O)NCCN(C)C	0.7	-3	.	-7	.	2.1	-0.7	.	.	.
CN(C)S(=O)(=O)c1ccc(N2CCCC2)c(C(=O)NNC(=O)c2ccc(Br)cc2)c1	0.66	1	-2.4	1	i	0.5	0.1	-3	-10	-3.3
COCCNC(=O)c1cc2c(=O)n(C)c3ccccc3c2n1C	0.72	2	-2.4	2	i	2.0	0.2	-6	-5	0.0
CCCN(C(=O)CSc1nnc(-c2ccoc2C)n1N)C1CCS(=O)(=O)C1 (stereo not given)	0.7	2	.	5	.	0.9	2.9	.	.	.
Cc1ccc(C(=O)N/N=C/c2cccc3ccccc23)cn1	.	1	4.8	-13	i	.	-0.2	-2	3	2.4
C[C@@H](NC(=O)[C@@H]1Cc2ccccc2CN1)C(=O)NC1CCCC1	0.73	-3	-3.8	-3	i	0.6	-0.1	8	15	-1.3
NS(=O)(=O)c1ccc(CCNc2nc(CN3CCOCC3)nc3sc4c(c23)CCC4)cc1	0.78	-4	.	-12	.	-8.1	-0.2	.	.	.
NC(=O)c1sc2nc3c(c(-c4ccco4)c2c1N)CCCC3	0.65	-11	-2.1	2	i	-6.6	-1.6	2	-1	5.0
COc1ccccc1[C@H]1C(c2cccc(C)c2)=NN(c2ccccc2)[C@@H]1CO	0.72	.	-16	.	i	i	.	9	-18	35
C=CCn1c(CSc2nc3ccccc3s2)nnc1SCC(=O)NCCN1CCOCC1	0.74	0	.	15	.	1.1	-0.2	.	.	.
CN(Cc1ccccc1)c1ncnc2ccc(Br)cc12	0.69	-6	.	-4	.	1.9	-0.5	.	.	.
CCc1c(C)nc2c(-c3ccccc3OC)c(C)[nH]n2c1=O	0.67	-2	2.2	-6	i	-1.1	0.1	2	-2	-3.7
CN(C(=O)CSC1=NCCS1)c1ccccc1	0.76	1	.	-17	.	0.2	-0.3	.	.	.
NC1=C([N+](=O)[O-])C(c2ccccc2)C2=C(CCCC2=O)O1 (stereo not given)	0.69	-4	-10	-6	i	4.2	0.5	-2	-3	0.0
CC(=O)NCc1ccc(-c2csc(N)n2)s1	0.71	.	.	-14	.	1.4	1.0	.	.	.
CC1(C)NC(=O)N(CCC(=O)Nc2cc(C(F)(F)F)ccc2Cl)C1=O	0.63	-1	-0.5	.	i	1.8	0.0	9	10	-0.2
CCCN(C(=O)c1cn(CC)c2nc(C)ccc2c1=O)c1c(N)n(Cc2ccccc2)c(=O)[nH]c1=O	0.62	-4	-2.0	0	i	3.4	0.5	-27	-25	6.5
CCCCOc1ncnc2c1[nH]c1ccc(C)cc12	0.67	61	-2.6	13	i	-15	-3.5	6	13	-1.3
COc1ccc(-c2c(C)nn(-c3ccccc3)c2N)cc1OC	0.67	-7	.	7	.	1.0	-0.4	.	.	.
CCCC(=O)Nc1nn(CC(C)C)c2nc3cc(C)ccc3cc12	0.67	.	-8.6	5	i	-143	0.5	8	11	-1.6

16 structures out of the list, sorted by molar mass, falling.
SMILES	Ecoli growth	Beta apoptosis	MLL AF4-AF9 inh	T cruzi repl	FGF22 binding	UCH37 DUB inh	Bfl-1 A1 inh	rRNA inh HTS	rRNA inh HTS OD600	rRNA inh HTS RFP
CN(C)S(=O)(=O)c1ccc(N2CCCC2)c(C(=O)NNC(=O)c2ccc(Br)cc2)c1	0.66	1	-2.4	1	i	0.5	0.1	-3	-10	-3.3
C=CCn1c(CSc2nc3ccccc3s2)nnc1SCC(=O)NCCN1CCOCC1	0.74	0	.	15	.	1.1	-0.2	.	.	.
CCCN(C(=O)c1cn(CC)c2nc(C)ccc2c1=O)c1c(N)n(Cc2ccccc2)c(=O)[nH]c1=O	0.62	-4	-2.0	0	i	3.4	0.5	-27	-25	6.5
NS(=O)(=O)c1ccc(CCNc2nc(CN3CCOCC3)nc3sc4c(c23)CCC4)cc1	0.78	-4	.	-12	.	-8.1	-0.2	.	.	.
CC1(C)NC(=O)N(CCC(=O)Nc2cc(C(F)(F)F)ccc2Cl)C1=O	0.63	-1	-0.5	.	i	1.8	0.0	9	10	-0.2
COc1ccccc1[C@H]1C(c2cccc(C)c2)=NN(c2ccccc2)[C@@H]1CO	0.72	.	-16	.	i	i	.	9	-18	35
CN(Cc1ccccc1)c1ncnc2ccc(Br)cc12	0.69	-6	.	-4	.	1.9	-0.5	.	.	.
CCCC(=O)Nc1nn(CC(C)C)c2nc3cc(C)ccc3cc12	0.67	.	-8.6	5	i	-143	0.5	8	11	-1.6
C[C@@H](NC(=O)[C@@H]1Cc2ccccc2CN1)C(=O)NC1CCCC1	0.73	-3	-3.8	-3	i	0.6	-0.1	8	15	-1.3
NC(=O)c1sc2nc3c(c(-c4ccco4)c2c1N)CCCC3	0.65	-11	-2.1	2	i	-6.6	-1.6	2	-1	5.0
COc1ccc(-c2c(C)nn(-c3ccccc3)c2N)cc1OC	0.67	-7	.	7	.	1.0	-0.4	.	.	.
CCc1c(C)nc2c(-c3ccccc3OC)c(C)[nH]n2c1=O	0.67	-2	2.2	-6	i	-1.1	0.1	2	-2	-3.7
Cc1ccc(C(=O)N/N=C/c2cccc3ccccc23)cn1	.	1	4.8	-13	i	.	-0.2	-2	3	2.4
NC1=C([N+](=O)[O-])C(c2ccccc2)C2=C(CCCC2=O)O1 (stereo not given)	0.69	-4	-10	-6	i	4.2	0.5	-2	-3	0.0
CCCCOc1ncnc2c1[nH]c1ccc(C)cc12	0.67	61	-2.6	13	i	-15	-3.5	6	13	-1.3
CC(=O)NCc1ccc(-c2csc(N)n2)s1	0.71	.	.	-14	.	1.4	1.0	.	.	.

Other results:
SMILES	Ecoli growth	Beta apoptosis	MLL AF4-AF9 inh	T cruzi repl	FGF22 binding	UCH37 DUB inh	Bfl-1 A1 inh	rRNA inh HTS	rRNA inh HTS OD600	rRNA inh HTS RFP
CC(NCc1cccs1)C(=O)Nc1cc(Cl)cc(Cl)c1 (stereo not given)	0.64	-3	3.3	0	i	4.0	-0.3	0	-28	-1.5
Cc1cc(NC(=O)CSc2[nH]c(=O)cc(C(F)(F)F)c2C#N)no1	0.63	-2	-6.0	.	i	2.3	-0.7	-6	-4	2.4
COCCNC(=O)C(c1ccc(C)o1)N(C(=O)c1snc(C(N)=O)c1N)c1cccc(C)c1 (stereo not given)	0.71	1	.	4	.	-74	-0.1	.	.	.
Cc1cccc(C)c1OCc1cc(C(=O)N2CCN(c3ccc(F)cc3)CC2)no1	0.7	.	-0.5	13	i	1.4	.	-13	-17	0.3

The list is partial, so the mix of outcomes need not match the whole.
